# HNF4A DNA FP = change in binding of human HNF4 alpha to DNA | HNF4a-FITC DNA binding, fluorescence polarization, 1 h | activity change, % at 10 µM | P41235 | AID 1224865 | 360,000 tested, 0.3% active; in the data active means activity change above about 30%, passing the limit was not always enough;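 further: controls were the assay level and a saturating level of protein; the project sought stronger binding though the title names inhibitors; some compounds called inactive have numbers as strong as hits; positive values seem to mean higher polarization but the record does not say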
# Target sequence (P41235 whole entry, looked up): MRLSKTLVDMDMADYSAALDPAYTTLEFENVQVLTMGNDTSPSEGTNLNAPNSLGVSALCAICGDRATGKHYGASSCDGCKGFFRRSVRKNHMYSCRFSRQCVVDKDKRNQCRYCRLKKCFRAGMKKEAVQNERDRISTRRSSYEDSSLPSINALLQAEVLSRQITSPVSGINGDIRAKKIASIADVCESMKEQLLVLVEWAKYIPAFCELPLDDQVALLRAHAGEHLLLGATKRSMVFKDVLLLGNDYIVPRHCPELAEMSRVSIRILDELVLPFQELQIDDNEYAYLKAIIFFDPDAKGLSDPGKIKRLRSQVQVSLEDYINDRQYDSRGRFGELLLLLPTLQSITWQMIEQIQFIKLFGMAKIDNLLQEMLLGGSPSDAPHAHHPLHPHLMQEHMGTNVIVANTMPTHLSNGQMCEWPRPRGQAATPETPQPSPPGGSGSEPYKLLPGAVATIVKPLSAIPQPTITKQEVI
# FGF22 binding = binders of recombinant human FGF22 by thermal shift; Q9HCT0; SYPRO orange fluorescence; percent of sucrose octasulfate shift, DMSO zero; calls only at 9.99 µM; 340,000 tested, 1.5% active; AID 651658;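 active means melting point raised past a set limit in the mean and every replicate; three in four hits are not shown here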
# Target sequence (Q9HCT0 whole entry, looked up): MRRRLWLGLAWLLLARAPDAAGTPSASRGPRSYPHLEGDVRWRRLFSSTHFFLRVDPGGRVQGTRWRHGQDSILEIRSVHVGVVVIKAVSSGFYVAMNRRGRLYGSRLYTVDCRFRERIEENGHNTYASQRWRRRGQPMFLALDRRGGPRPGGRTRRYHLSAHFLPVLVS
# Active calls of the source: *; i = inactive; . = no result given. A portion of the library; rates above refer to the full screens.
# Sample of the layout:
SMILES,HNF4A DNA FP,FGF22 binding
CCc1nc2c(OCC3COc4ccccc4O3)cccn2c1N(C)C(=O)c1cccc(OC)c1 (stereo unspecified),0.8,i
NC(Cc1ccc(F)cc1)c1csc(Nc2ccc(C(=O)NCCCO)cn2)n1 (stereo unspecified),-0.7,i
Cc1cccc(C)c1-n1nnnc1C1c2ccccc2C(=O)N1CCOc1ccccc1 (stereo unspecified),-6.6,i

# Main list, from the start:
SMILES,HNF4A DNA FP,FGF22 binding
CCc1nc2c(OCC3COc4ccccc4O3)cccn2c1N(C)C(=O)c1cccc(OC)c1 (stereo unspecified),0.8,i
NC(Cc1ccc(F)cc1)c1csc(Nc2ccc(C(=O)NCCCO)cn2)n1 (stereo unspecified),-0.7,i
Cc1cccc(C)c1-n1nnnc1C1c2ccccc2C(=O)N1CCOc1ccccc1 (stereo unspecified),-6.6,i
Clc1cccc(-c2nc3c4ccccc4ccn3c2CC2CCCCC2)c1,8.2,i
Cc1ccccc1CN1C(=O)CSCC1(C)C(=O)Nc1ccc2c(c1)OCCO2 (stereo unspecified),0.0,i
COCCCN1C(=O)C(CC(=O)NC(c2ccccc2)c2ccccc2)CC(C(=O)N(C)C)=C1C (stereo unspecified),-3.2,i
Cc1ccc(S(=O)(=O)N2C[C@H]3n4c(=O)ccc(=O)n4C[C@H](OC(=O)NC4CC4)[C@@]3(O)C2)cc1,-1.6,i
CC(C)CC(=O)[C@@H](O)Cc1ccc(O)cc1,3.3,i
CCCCn1nnnc1C(c1cc2ccccc2o1)N(CCN(C)C)Cc1ccccc1 (stereo unspecified),7.6,i
CCN(CC)c1nc(C=Cc2ccc(N(C)C)cc2)c2nccnc2n1,105,i
CC1Oc2ccc(C#N)cc2N(Cc2ccccc2OC(F)(F)F)C1=O (stereo unspecified),0.0,i
CCc1ccc(N2CC(C(=O)Nc3ccc(OC)c(S(=O)(=O)N4CCOCC4)c3)CC2=O)cc1 (stereo unspecified),-0.1,i
O=C1C(Sc2cccc(F)c2)=C[C@@]2(O)CC[C@@H](O)[C@]1(Sc1cccc(F)c1)[C@H]2O,3.1,i
CC(C)NC(=O)N1Cc2cc(C(=O)NC3CCCC3)nc(-c3cccc(-c4cccnc4)c3)c2[C@@H]1CCO,1.5,i
C=CCCC(=O)N1C[C@H]2CON(C)[C@H]2C[C@H]1c1ccc(Br)cc1,-3.4,i
CC1CN(C(=O)COC(=O)c2ccc3ccccc3c2)CC(C)O1 (stereo unspecified),0.8,i
CCOC(=O)C1=CC[C@@H](c2ccc([N+](=O)[O-])cc2)N(S(=O)(=O)c2ccc(C)cc2)[C@H]1c1ccccc1,0.3,i
CC(=O)N1CCC(C(=O)N2c3ccccc3N=C(c3ccc4c(c3)OCO4)C2C(=O)NCc2ccccc2)CC1 (stereo unspecified),-1.5,i
COc1ccccc1Cc1c(-c2ccc(OC)c(OC)c2)nc2c3ccccc3ccn12,8.9,i
Cn1c(NCCOc2ccccc2)nc2cc(-c3ccc(F)cc3)sc2c1=O,1.8,i
Cc1ccccc1NC(=O)Nc1nc(C(N)C2CCCCC2)cs1 (stereo unspecified),3.2,i
NC(=O)Cc1ccc(OCc2nn[nH]n2)cc1,-0.6,i
CC(C)C(=O)N1CCC1(C)C(=O)NCc1ccc(C(C)(C)C)cc1 (stereo unspecified),3.3,i
C[C@@H]1CN([C@H](C)CO)C(=O)CCCn2cc(nn2)CO[C@H]1CN(C)C(=O)NC1CCCCC1,0.0,i
CC1CCCN(S(=O)(=O)c2ccc3[nH]c(=O)cc(C(=O)NCCCN4CCCCCC4)c3c2)C1 (stereo unspecified),1.6,i

# Record cards, from the list above. Order of screens: HNF4A DNA FP, FGF22 binding
# `NC(=O)Cc1ccc(OCc2nn[nH]n2)cc1` is listed with -0.6, i
# `Cc1ccccc1CN1C(=O)CSCC1(C)C(=O)Nc1ccc2c(c1)OCCO2` (stereo unspecified) is listed with 0.0, i
# `CC1CN(C(=O)COC(=O)c2ccc3ccccc3c2)CC(C)O1` (stereo unspecified) is listed with 0.8, i

# Some of the entries above, set out differently:
SMILES | HNF4A DNA FP | FGF22 binding
Cc1ccc(S(=O)(=O)N2C[C@H]3n4c(=O)ccc(=O)n4C[C@H](OC(=O)NC4CC4)[C@@]3(O)C2)cc1 | -1.6 | i
CC(C)CC(=O)[C@@H](O)Cc1ccc(O)cc1 | 3.3 | i

# Next entries.
SMILES,HNF4A DNA FP,FGF22 binding
COc1ccc(CN2C(=O)CSCC2(C)C(=O)NCc2ccccc2)cc1 (stereo unspecified),1.1,i
CC(C)C[C@@H](CN1CCC[C@@H]1CN1C(=S)NC[C@@H]1Cc1ccc(O)cc1)N1C[C@H](Cc2ccc(O)cc2)N(CC2CCCCC2)C1=S,-1.2,i
CCCS(=O)(=O)NC(=O)C1(C)CCCN(C(=O)c2ccc(OC)cc2)C1 (stereo unspecified),1.6,i
CC(C)(C)NC(=O)C(c1cc2ccccc2o1)n1c(=O)c(-c2cc3ccccc3[nH]2)nc2ccccc21 (stereo unspecified),6.6,i
O=S1(=O)CC(N2CCCC2)CN1Cc1cn(Cc2ccc(F)cc2)nn1 (stereo unspecified),-1.3,i
Cc1ccc(C)c(CC(=O)N2CCCC(c3cc(C(=O)NCc4cccnc4)no3)C2)c1 (stereo unspecified),2.1,i
COc1ccc(NC(=O)c2ccc(-c3c(C)noc3C)c3ccoc23)cn1,12,i
CC(C)[C@H](NC(=O)[C@@H]1Cc2c([nH]c3ccccc23)C2c3ccccc3C(=O)N21)C(=O)N1CCC[C@H]1C(=O)O (stereo partly specified),-3.5,i
CC(C)C[C@@H](COCc1ccc(F)cc1)N1CCN(C(=O)c2cccc(C(F)(F)F)c2)CCC1=O,3.0,i
Cc1cnc(C)c(Nc2nc(C(N)Cc3ccc(Cl)cc3)cs2)n1 (stereo unspecified),7.1,i
CCCCC[C@H](C)N1C[C@@H](COCc2ccccc2)Oc2cc(N3CC[C@H](O)C3)ccc2S1(=O)=O,5.2,i
Cc1cc(Br)cn2c(Cc3cccc(F)c3)c(-c3ccc(Cl)cc3)nc12,3.4,i
COCCNC(=O)C1(C)CCCN(Cc2c(C)nn(-c3ccccc3)c2C)C1 (stereo unspecified),-0.5,i
O=C(Cn1sc2ccccc2c1=O)Nc1ccccc1,-0.7,i
CCOC(=O)C1=CCN(S(=O)(=O)c2ccc(Cl)cc2)C1c1ccccc1 (stereo unspecified),-2.9,i
CN1C(=O)[C@H]2[C@@H](c3ccccc3)N[C@]3(CCCN(Cc4ccc(F)cc4)C3=O)[C@H]2C1=O,0.7,i
Cc1c(C(=O)N2CCCC(C)(C(=O)NS(=O)(=O)C3CC3)C2)oc2ccccc12 (stereo unspecified),5.5,i
CCNC(=O)C1(C)CCN(Cc2cccc(Oc3ccccc3)c2)C1 (stereo unspecified),-2.0,i
C=CCn1c2ccccc2c2nnc(SCC(=O)OC)nc21,1.8,i
CC1=C(C(=O)N(C)C)CC(CC(=O)NCc2cccc3ccccc23)C(=O)N1CCC1=CCCCC1 (stereo unspecified),2.5,i
Cc1ccc(S(=O)(=O)N(C)C[C@H]2OCc3cnnn3CCCC(=O)N([C@H](C)CO)C[C@H]2C)cc1,2.6,i
Cc1ccc2nc(-c3cccc(Br)c3)c(Cc3ccccc3)n2c1,11,i
CSc1ccccc1NC(=O)C1(C)CCN1C(=O)Cc1ccc(-c2ccccc2)cc1 (stereo unspecified),-2.1,i
CC(=O)Nc1cccc(-c2ccnc3c2CC(C(=O)Nc2ccc4c(c2)OCO4)O3)c1 (stereo unspecified),-1.1,i
C[C@@H]1CCCCO[C@H](CN(C)C(=O)C2CCCCC2)[C@@H](C)CN([C@H](C)CO)C(=O)c2cc(N(C)C)ccc2O1,1.7,i
# Next entries
SMILES,HNF4A DNA FP,FGF22 binding
C[C@@H]1CN([C@H](C)CO)C(=O)c2cc(C3=CCCCC3)cnc2O[C@@H]1CN(C)Cc1ccccc1C(=O)O,0.1,i
COc1ccc([C@@H]2CC(=O)[C@@H]3CN(S(=O)(=O)c4ccc(C)cc4)[C@H](c4cccc(Cl)c4)C[C@@H]3N2S(=O)(=O)c2ccccc2)cc1,3.0,i
O=C(C(=O)N1CCN(c2ccccc2)CC1)c1ccncc1,5.6,i
CC(=O)NC(c1ccc(F)c(F)c1)c1nc(-c2cccs2)cs1 (stereo unspecified),1.7,i
COCCN1C[C@@H](CO)O[C@@H](n2cnc3c(NC4CCC4)ncnc32)C1,1.6,i
CCOC(=O)C1=CCN(S(=O)(=O)c2cccc(Cl)c2)C1c1ccc(Br)cc1 (stereo unspecified),0.1,.
COCOCCn1cc(CN2CCS(=O)(=O)N(Cc3ccc(-c4ccc(F)cc4)cc3)C(C(C)C)C2=O)nn1 (stereo unspecified),4.9,i
Cc1ccc(C(O)c2ncc(-c3cccc(C(F)(F)F)c3)[nH]2)c(C)c1 (stereo unspecified),0.5,i
CC1CC(C)(C)CC2(C1)NC(=O)N(CC(=O)Nc1ccc3c(c1)OCO3)C2=O (stereo unspecified),2.0,i
COc1ccc(-c2nc3cc(C)c(Br)c(C)n3c2Cc2ccccc2)cc1OC,2.7,i
CCC(c1nnnn1-c1ccc2c(c1)OCCO2)N1CCN(c2ccc(C(F)(F)F)cc2[N+](=O)[O-])CC1 (stereo unspecified),-3.2,i
CN(C)Cc1ccccc1-c1cccc2nccn12,-4.3,i
Cc1ccc(Cl)cc1-c1cc(C(=O)N2CCN(c3ccncc3)CC2)[nH]n1,2.3,i
CCCC(C)(C)C(=O)N1CCC1(C)C(=O)NS(=O)(=O)c1ccc(Cl)cc1 (stereo unspecified),0.5,i
O=C(Nc1cccc(-c2cccc(Cl)c2)c1)C1CCN(Cc2nccs2)CC1,0.6,i
Cc1ccccc1S(=O)(=O)NC(=O)C1(C)CCN1C(=O)Cc1cc(F)ccc1F (stereo unspecified),-0.2,i
Cc1cccc(C)c1NC(=O)C1C(c2ccc3c(c2)OCO3)=Nc2ccccc2N1C(=O)c1cccc(C(F)(F)F)c1 (stereo unspecified),9.5,i
COc1ccc(Nc2c(CCc3ccccc3)nc3nc(C)cc(C)n23)cc1,4.9,i
CCC(CC)C(=O)N(C)c1c(C)nc2c(OCc3ccccc3OC)cccn12,-1.1,i
COc1ccc(OC)c(NC(=O)C2(C)CCN2CCOc2ccccc2)c1 (stereo unspecified),0.2,i
CCOC(=O)N1CCN(C(=O)C[C@@H]2C[C@@]3(C(=O)OCC)CCC=C3N(Cc3cccc4ccccc34)C2=O)CC1,1.8,i
CCn1c(SCC(=O)Nc2oc(C)c3c(C)n[nH]c(=O)c23)nnc1-c1ccco1,-2.7,i
CCN(C(=O)Cn1cc(C(F)(F)F)ccc1=O)C1CCS(=O)(=O)C1 (stereo unspecified),-2.4,i
Cc1ccccc1S(=O)(=O)N(C)C[C@@H]1OCc2cn(nn2)CCCC(=O)N([C@H](C)CO)C[C@H]1C,3.8,i
O=C1NC[C@H](Cc2ccccc2)N(C[C@@H]2CCCN2C[C@H](Cc2ccc(O)cc2)N2C[C@H](Cc3ccc(O)cc3)N(CCc3ccccc3)C(=O)C2=O)C1=O,-1.6,i
# Continuation.
SMILES,HNF4A DNA FP,FGF22 binding
Cc1ccn(CCC(=O)N2CCCC(N3CCN(c4ccccc4C)CC3)C2)n1 (stereo unspecified),-0.8,i
COCCN(C(=S)Nc1ccc(OC)c(Cl)c1)C1CCN(C(C)=O)CC1,-7.8,i
CCOC(=O)[C@]12CCC=C1N(CCC1=CCCCC1)C(=O)[C@H](CC(=O)NCc1ccc(OC)c(OC)c1)C2,-0.3,i
CC(C)NC(=O)C1(C)CCN1Cc1cccc(Cl)c1 (stereo unspecified),-1.3,i
COc1ccc(NCC(=O)Nc2c(C)cccc2C)cc1S(=O)(=O)N1CCOCC1,4.6,i
C[C@@H]1CN([C@H](C)CO)C(=O)CCCn2nncc2CO[C@H]1CN(C)Cc1cccnc1,1.0,i
CC1(C(=O)Nc2cccnc2)Cc2c(-c3cccc(C(F)(F)F)c3)ccnc2O1 (stereo unspecified),3.3,i
C[C@@H]1CN([C@@H](C)CO)C(=O)c2cc(Br)cnc2O[C@H]1CN(C)C(=O)Cc1ccccn1,0.1,i
CC(C)NC(=O)c1cc(C2CCCCN2S(=O)(=O)c2ccccc2)on1 (stereo unspecified),4.0,i
Nc1nc(COC(=O)c2ccco2)nc(Nc2ccccc2)n1,3.7,i
CN(C)CCCOc1ccc(-c2ccc3nccn3c2)cn1,-0.8,i
O=C(c1cccs1)N1C[C@@H](O)[C@H](n2cc(-c3ccc(F)cc3)nn2)C[C@@H]1c1ccccc1,-5.7,i
CC1(C(=O)O)CCN1C(=O)COc1ccc(Cl)cc1 (stereo unspecified),2.7,i
O=C1C=C(c2ccc(CO)cc2)C[C@@H](c2ccc(F)cc2)C1,3.5,i
CCOC(=O)/C(=C(/C)N)C1CC(=O)NC1=O (stereo unspecified),-1.8,i
C[C@@H]1CN([C@H](C)CO)C(=O)CCCn2cc(nn2)CO[C@H]1CN(C)C(=O)c1ccccc1,1.0,i
COc1cccc(-c2cnc3c(NC=O)cc(-c4ccc(N5CCN(C)CC5)cc4)cn23)c1,19,i
Cc1nc(C)c(C(=O)OCC(=O)Nc2ccc(C)c(C)c2)s1,0.2,i
O=C(Nc1ccccc1Cl)c1cc(C2CCCN(C(=O)c3ccccc3)C2)on1 (stereo unspecified),-6.7,i
O=C(c1ccco1)N1CCN(C2CN(Cc3ccccc3)S(=O)(=O)C2)CC1 (stereo unspecified),0.3,i
CCCCC[C@H](C)N1C[C@H](COCc2ccccc2)Oc2cc(N3CC[C@@H](N(C)C)C3)ccc2S1(=O)=O,-0.5,i
CC1=C(C(=O)N2CCOCC2)CC(CC(=O)NCCN2CCOCC2)C(=O)N1Cc1ccccc1 (stereo unspecified),0.7,i

# Bioassay records: PubChem, several laboratories
